Screens deposited in PubChem BioAssay by ICCB-Longwood Screening Facility, Harvard Medical School.
HCMV NEC inh = inhibitors of HCMV UL50-UL53 nuclear egress complex interaction; inhibition, % (concentration not given with the values); HTRF UL50-UL53 interaction, normalized percent inhibition; actives 0.15% (n = 190,000); AID 1918969;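 active = both replicates at 50% or more, plus weaker picks with an unusually low signal ratio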;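 note: stock transfer was 100 nL into about 20 µL; 0% = negative control wells and 100% = wells with untagged competitor protein; inactives centre near -12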
Sa growth 42C = inhibitors of Staphylococcus aureus growth at 42 °C. S. aureus RN4220 growth, OD600, 20 h; active compounds read low. relative growth, % (concentration not given with the values). actives 0.53% (n = 170,000). AID 720641;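 active = growth at 42 °C up to 50% and 20 or more points under that at 30 °C, or under 10% at both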;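 note: 300 nL library stock went into each well; scaled to the means of positive and negative controls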
GIV-Gai inh = inhibitors of GIV GBA-motif binding to rat Galpha-i3; Galpha-i3/FITC-GIV peptide fluorescence polarization, 90 min; active compounds read low; scaled: aluminum fluoride 0%, vehicle 100%; percent of control (FP), % (no concentration beside the values); actives 0.42% (n = 210,000);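 active = replicate mean at 85% of control or lower, very high polarization wells dropped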;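 note: wells of about 15 µL received 100 nL stock; the first replicate is given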
Target sequence (P08753 whole entry, looked up): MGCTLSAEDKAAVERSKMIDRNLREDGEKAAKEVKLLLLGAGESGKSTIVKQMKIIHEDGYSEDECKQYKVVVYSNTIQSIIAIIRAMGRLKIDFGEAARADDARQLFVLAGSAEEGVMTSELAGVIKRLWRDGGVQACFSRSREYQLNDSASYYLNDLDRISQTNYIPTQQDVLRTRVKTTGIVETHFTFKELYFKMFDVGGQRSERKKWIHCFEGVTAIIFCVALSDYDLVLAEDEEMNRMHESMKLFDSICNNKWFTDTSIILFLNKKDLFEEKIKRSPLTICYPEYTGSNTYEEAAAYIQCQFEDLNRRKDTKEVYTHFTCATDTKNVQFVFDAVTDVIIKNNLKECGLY
Sa growth 42C second temp = also measured in Sa growth 42C; calls as there; relative growth, %; measured here: growth at 30 °C;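 optical density after 20 h as mean of two plates; 100% = untreated growth and lower means inhibition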
Starred values were filed as active, the others as inactive; nt = no result given; & = joins results of further samples.

SMILES | HCMV NEC inh | Sa growth 42C | Sa growth 42C second temp | GIV-Gai inh
CC(=O)Oc1ccccc1C(=O)N1CCc2ccccc21 | -10.6 | 108.3 | 77.5 | nt
CC1CN(c2ccc(Br)cc2)c2nc3c(c(=O)n(CC(=O)O)c(=O)n3C)n2C1 (stereo not drawn) | -2.0 | nt | nt | 97.2
COc1ccc(S(=O)(=O)N(C(=O)c2ccc(Cl)cc2)c2ccc3oc(=O)sc3c2)cc1 | -14.1 | nt | nt | 96.5
CC1CCc2c(sc3nc(-c4ccccc4Cl)oc(=O)c23)C1 (stereo not drawn) | -27.6 | nt | nt | 98.1
Cc1ccc(C(=O)Nc2cc3c(oc2=O)CC(C)(C)CC3=O)cc1 | -76.0 | 83.3 | 86.7 | 91.9
OC(c1ccco1)c1nccc2ccccc12 (stereo not drawn) | -62.3 | 96.3 | 85.6 | 92.1
COc1cccc(N2C(=O)c3cc4sccc4n3CC2(C)C(=O)NC2CCCCC2)c1 (stereo not drawn) | -15.5 | nt | nt | 102.0
NC(=O)c1nc(-c2cccc(F)c2)nc2c1[nH]c(=O)n2CC1CCCO1 (stereo not drawn) | -15.8 | nt | nt | 98.8
COC(=O)/C=c1/s/c(=C(/C#N)C(N)=O)n(-c2ccccc2)c1=O | -22.5 | 107.8 | 93.0 | 104.0
CC(C)OC(=O)c1c(NC(=O)c2cccc(C(F)(F)F)c2)sc2c1CCCC2 | -61.9 | 90.7 | 85.9 | 103.7
Fc1ccc2nc(Nc3nc4ccc(F)cc4s3)sc2c1 | nt | 119.8 | 93.3 | 106.2
O=C(c1ccco1)N1N=C(c2c(-c3ccccc3)c3cc(Br)ccc3[nH]c2=O)CC1c1ccco1 (stereo not drawn) | -14.3 | nt | nt | 105.5
COCCNc1ncc(C(=O)OC)c2ccccc12 | -4.7 | 99.7 | 95.5 | 106.2
Cc1cc(Cl)c2cc(O)ccc2n1 | -23.4 | 103.2 | 88.9 | 103.2
O=C(Oc1cccc2[nH]ccc12)c1c(F)cccc1F | -12.8 | 116.6 | 81.1 | 100.2
O=C(c1ccc(S(=O)(=O)Nc2ccc3c(c2)OCCO3)s1)N1CCCC1 | 1.0 | 101.9 | 85.0 | 107.0
CCCc1ccc(NC(=O)C2CCCN(c3cnccn3)C2)cc1 (stereo not drawn) | -20.7 | 106.0 | 85.5 | 99.9
O=C(CCNS(=O)(=O)c1ccc(Cl)cc1)N1CCN(c2ccccn2)CC1 | -13.1 | 111.6 | 80.3 | 98.4
COc1cc(OC)cc(N2C(=O)c3cc4ccsc4n3CC2(C)C(=O)NCc2ccccc2OC)c1 (stereo not drawn) | -34.1 | nt | nt | 102.4
CCOC(=O)N1CCc2c(sc3c2c(=O)n(Cc2ccccc2)c(=O)n3CC(=O)Nc2ccccc2F)C1 | -30.4 | 94.3 | 87.9 | 99.5
Oc1oc(-c2ccccc2)cc1C=Nc1ccccc1 | -12.5&-6.4 | 81.7 | 67.3 | 106.0
O=c1cc2nc(-c3ccccc3Cl)nc(SCc3cc(=O)n4c5c(sc4n3)CCCC5)n2[nH]1 | 0.5 | nt | nt | 98.2
COc1ccc(Cc2nnc(C(=O)NCc3ccccc3)o2)cc1OC | -16.6 | 84.3 | 86.4 | 103.2
O=C(NCc1ccco1)c1ccc2c(c1)N(Cc1ccc(Cl)cc1)C(=O)c1ccccc1S2(=O)=O | -34.3 | 90.8 | 92.5 | 101.4
CC(OC(=O)Cc1c[nH]c2ccccc12)C(=O)NC1CCCC1 (stereo not drawn) | 3.1 | 100.0 | 88.9 | 101.8
O=C(NCc1ccccc1CN1CCCC1)c1cc(=O)[nH]c2ccccc12 | -11.1 | 64.3 | 85.9 | nt
COC(=O)c1nnc(Nc2ccc(Oc3ccccc3)cc2)c2ccccc12 | nt | 71.1 | 69.2 | 100.3
CCOCCCNC(=O)c1ncn2c1C(=O)N(CC)C(C)(C(=O)NC1CCCC1)C2 (stereo not drawn) | -13.4 | nt | nt | 104.4
O=C(NCCCN1CCN(c2ccc(F)cc2)CC1)c1cnn(-c2ccc(F)cc2)c1-n1cccc1 | nt | 111.8 | 84.9 | 100.8
CCCc1[nH]nc2c1C(CCc1ccccc1)C(C#N)=C(N)O2 (stereo not drawn) | nt | 119.4 | 59.5 | 107.0
Cn1cc(Cl)c(/C=C(\C#N)S(=O)(=O)c2ccccc2)n1 | 1.8 | 105.4 | 95.7 | 107.3
CC(c1ccc(-n2cncn2)cc1)N(C)S(=O)(=O)c1cccc(C#N)c1 (stereo not drawn) | -21.3 | 85.5 | 81.5 | nt
CN(CC(=O)N1CCc2ccccc2C1)S(=O)(=O)c1ccc(Cl)cc1 | nt | 96.1 | 83.1 | 101.7
Cc1cccc(NC(=O)CCN2CCC(C)CC2)c1 | -13.2 | 96.7 | 76.4 | 103.3
COc1ccc(S(=O)(=O)c2c(C)cc(C)n(CC(=O)Nc3oncc3-c3ccccc3)c2=O)cc1 | -30.0 | nt | nt | 98.9
CN(C)c1ccc(C2CC(c3ccccc3)=NN2C(=O)c2ccc(F)cc2)cc1 (stereo not drawn) | 8.6 | nt | nt | 99.6
CCN(Cc1ccccc1)C(=O)Cn1ncc2c(=O)oc3ccc(C)cc3c21 | -4.2 | 94.1 | 83.8 | 110.0
Cc1nc(-c2ccc(S(=O)(=O)N3CCCc4ccccc43)s2)cs1 | -25.8 | 95.7 | 93.8 | 132.8
COC(=O)c1ccccc1NC(=O)C1=CCCCC1C(=O)O (stereo not drawn) | -14.2 | 99.2 | 87.7 | 97.5
CC1(C)Cc2ccccc2C(Nc2nc(-c3ccccc3)cs2)=N1 | nt | 94.9 | 95.1 | 97.5
Cc1ccc(CN(Cc2cccn2-c2nnc(N3CCCC3=O)s2)C(=O)Nc2ccc(F)cc2)cc1 | 2.5 | 107.1 | 97.9 | 96.0
O=C(Cn1cc(S(=O)(=O)Cc2ccccc2F)c2ccccc21)NCc1ccccc1Cl | nt | 113.2 | 78.9 | 105.6
CCc1ccc2[nH]c(=O)c(C(c3nnnn3C3CCCCC3)N3CCCC3)cc2c1 (stereo not drawn) | -47.2 | 110.6 | 94.4 | 100.3
Fc1ccc(Nc2nc3ccccc3n3cnnc23)c(F)c1 | -4.2 | 103.3 | 75.5 | 108.6
O=C(c1ccc2ccccc2n1)N1CCN(c2ccccc2O)CC1 | -10.5 | 100.4 | 83.0 | nt
CCOc1ccccc1NC(=O)Nc1ccccc1SCc1cc(=O)n2oc(C)cc2n1 | -29.5 | nt | nt | 105.2
CC(C)CCNC(=O)c1cn(C)c2c(=O)n(-c3ccccc3)c(=O)[nH]c12 | -1.8 | nt | nt | 103.4
COc1ccc(C2CC(=O)C3=C(C2)NC(=O)CC3c2ccc(OC)c(OC)c2)cc1OC (stereo not drawn) | -12.2 | 106.7 | 86.0 | 104.6

Reformatted tab-delimited: eleven of the compounds above
smiles	HCMV NEC inh	Sa growth 42C	Sa growth 42C second temp	GIV-Gai inh
Cc1nc(-c2ccc(S(=O)(=O)N3CCCc4ccccc43)s2)cs1	-25.8	95.7	93.8	132.8
COC(=O)c1ccccc1NC(=O)C1=CCCCC1C(=O)O (stereo not drawn)	-14.2	99.2	87.7	97.5
CC1(C)Cc2ccccc2C(Nc2nc(-c3ccccc3)cs2)=N1	nt	94.9	95.1	97.5
Cc1ccc(CN(Cc2cccn2-c2nnc(N3CCCC3=O)s2)C(=O)Nc2ccc(F)cc2)cc1	2.5	107.1	97.9	96.0
O=C(Cn1cc(S(=O)(=O)Cc2ccccc2F)c2ccccc21)NCc1ccccc1Cl	nt	113.2	78.9	105.6
CCc1ccc2[nH]c(=O)c(C(c3nnnn3C3CCCCC3)N3CCCC3)cc2c1 (stereo not drawn)	-47.2	110.6	94.4	100.3
Fc1ccc(Nc2nc3ccccc3n3cnnc23)c(F)c1	-4.2	103.3	75.5	108.6
O=C(c1ccc2ccccc2n1)N1CCN(c2ccccc2O)CC1	-10.5	100.4	83.0	nt
CCOc1ccccc1NC(=O)Nc1ccccc1SCc1cc(=O)n2oc(C)cc2n1	-29.5	nt	nt	105.2
CC(C)CCNC(=O)c1cn(C)c2c(=O)n(-c3ccccc3)c(=O)[nH]c12	-1.8	nt	nt	103.4
COc1ccc(C2CC(=O)C3=C(C2)NC(=O)CC3c2ccc(OC)c(OC)c2)cc1OC (stereo not drawn)	-12.2	106.7	86.0	104.6

Additional entries:
SMILES | HCMV NEC inh | Sa growth 42C | Sa growth 42C second temp | GIV-Gai inh
CCCc1[nH]c(Br)nc1-c1ccccc1 | nt | 87.5 | 85.5 | 100.5
Cc1nn(CC(=O)N2CCN(c3cccc(C(F)(F)F)c3)CC2)c(=O)c2cccn12 | 1.0 | 112.6 | 90.2 | 102.5
COc1cccc(NC(=O)Cn2c(-c3nonc3N)nc3ccccc32)c1 | -8.6 | 89.9 | 98.8 | 104.9
COc1cc(NC(=O)Cn2c(=O)n(Cc3ccco3)c(=O)c3oc4ccccc4c32)cc(OC)c1 | nt | 97.3 | 71.5 | 99.9
Cc1c(C2=CCN(S(=O)(=O)c3ccc(CC(C)C)cc3)CC2)c2ccccc2n1CC(=O)N1CCCC1 | 4.8 | 79.5 | 93.1 | 115.9
O=C(CN1c2ccc(F)cc2-c2ccccc2S1(=O)=O)NCCSC1CCCCC1 | -28.1 | nt | nt | 108.5
Cc1ccc(-c2cnc(NC(=O)CCC(=O)N3CCCCC3)n2C)cc1 | -2.9 | 96.5 | 89.2 | 107.1
COc1ccc(OCc2nn3c(COc4ccc(F)cc4)nnc3s2)cc1 | 9.0 | nt | nt | 99.4
Clc1ccc(-c2nnc3sc(-c4ccccc4)nn23)cc1 | -4.3 | nt | nt | 103.2
N#Cc1ccc2snnc2c1 | -39.8 | 74.0 | 0.9 | 108.8
COc1ccc(/C=N/N=C2\CC(C)(C)Cc3n[nH]c(=O)cc32)cc1OC | -23.6 | 102.0 | 120.5 | 98.8
C#CCN(C)CCCOc1ccc(Cl)cc1Cl | -18.8&-19.9&-24.2 | nt | nt | 105.8
Cc1cccc(C)c1OCCCCN1CC(C)OC(C)C1 (stereo not drawn) | -1.6 | 98.3 | 95.9 | 102.1
O=S(=O)(Nc1ccc(-c2ccc(N3CCCCC3)nn2)cc1)c1ccc(OC(F)(F)F)cc1 | nt | 113.3 | 96.1 | 108.2
COc1ccc(N(C)C(=O)c2cc3c(=O)oc4ccccc4c3s2)cc1 | nt | 124.7 | 92.4 | 102.6
Cc1cc(Cl)cc(C)c1OCC1COS(=O)O1 (stereo not drawn) | -2.7 | 108.9 | 104.2 | 94.3
CC(C)(C)NC(=O)CCN1C(=O)/C(=C\c2ccco2)SC1=S | -72.0 | 88.0 | 82.7 | 106.8
CCc1nc2nc3c(c(Nc4cc(C)cc(C)c4)n2n1)CCC3 | -16.6 | nt | nt | 103.8
CN(C)CCNC(=O)C(=O)NCC(c1ccc2c(c1)OCO2)N1CCOCC1 (stereo not drawn) | nt | 116.1 | 81.9 | 91.9
COc1ccc(C2c3c(n(C)c4ccccc34)C(=O)N2CC(=O)Nc2cccc(Cl)c2)cc1 (stereo not drawn) | nt | 99.3 | 96.8 | 98.8
COc1ccc(N2CCN(c3oc(/C=C/c4cc(OC)c(OC)c(OC)c4)nc3C#N)CC2)cc1 | -18.3 | 92.3 | 87.7 | 94.8
O=C(C=C1SCCS1)C1CC1c1ccccc1 (stereo not drawn) | -10.0 | 115.2 | 102.9 | nt
CCOc1ccc(NC(=O)N2CCN(CC(=O)c3c(C)n(C)c4ccccc34)CC2)cc1 | -21.4 | nt | nt | 102.9
O=C(Cc1ccccc1)Sc1ccccc1C(=O)O | -1.2 | 68.8 | 86.3 | nt
CCOC(=O)c1nn(-c2ccccc2)c(=O)c2c(N)scc12 | -36.0 | 98.0 | 86.8 | 103.1
COc1ccc(NC(=O)c2cccn2-c2nnc(N3CCCCC3)s2)cc1Cl | nt | 100.4 | 88.2 | 99.4
COc1ccc(CC(=O)N2N=C(C)CC2(O)c2ccc(Cl)cc2)cc1 (stereo not drawn) | -9.8 | nt | nt | 103.3
COc1ccc(CN(Cc2cc3cccc(C)c3n3nnnc23)C(=O)N2CCOCC2)cc1 | -3.5 | 110.9 | 99.7 | 105.4
Cc1ccc(NC(=O)c2cncc(NS(=O)(=O)c3ccc(F)cc3)c2)cc1 | -20.8 | nt | nt | 98.9
CCN1CCN(c2nc(-c3cccc(Cl)c3)c3c(n2)-c2ccccc2OC3)CC1 | nt | 92.6 | 92.3 | 101.1
CN(CCc1ccccn1)C(=S)NC(=O)c1ccco1 | -26.6 | 105.3 | 98.4 | nt
Cc1sc(NC(=O)C(C)(C)C)nc1-c1ccc2c(c1)NC(=O)C(C)O2 (stereo not drawn) | -9.3 | nt | nt | 96.3
Cc1cc(/C=C2\SC(=O)N(Cc3ccc(F)cc3)C2=O)c(C)n1-c1cccnc1 | -5.5 | nt | nt | 103.0
CC(C)c1ccc(N2C(=O)CSCC2(C(=O)NC2CCCCC2)c2ccc(Cl)cc2)cc1 (stereo not drawn) | nt | 114.1 | 85.6 | 101.0
O=C1Cc2cc(S(=O)(=O)N3CCN(c4cccc(Cl)c4)CC3)ccc2N1 | -13.5&-26.3 | 97.0 | 106.9 | 112.1&111.5
COc1cc2c(cc1OC)C(C)N(C=C(C#N)C#N)CC2 (stereo not drawn) | -36.5 | 95.7 | 92.4 | 105.2
